LT uptake inh: qHTS Assay for Anthrax Lethal Toxin Internalization; Cells, anthrax lethal toxin internalization, FRET ratio (460/530); Potency, µM (highest dose often 40 µM), inactives show at the highest dose activity change, negative = inhibition, actives largely listed as inhibitors; actives 0.67% (n = 70,000); active = well fitted falling ratio curve with the 530 nm signal flat; inconclusive = other ratio curves, or a change in one channel alone; inactive = flat curves in the ratio and both channels; the % refers to the ratio; note: % is set by controls: 0 for no effect and ±100 for the full control effect; nearly all actives have a fitted effect of over 50% in size; tested in ME-180 cells; beta-lactamase reporter
SmPrx2 inh: Schistosoma Mansoni Peroxiredoxins (Prx2). S. mansoni Prx2 activity coupled to TGR/GSH (TGR is thioredoxin glutathione reductase), NADPH fluorescence loss, qHTS; some inactives read as strong as hits. Potency, µM. actives 0.07% (n = 65,000). AID 448, 2006; active means full or partial inhibition curve with a strong effect at the top dose; inconclusive means weaker partial or single-point curve; inactive means no accepted curve; note: series up to 57 µM; many of its hits are not listed in these tables
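Enzyme mix: 100 uM NADPH, 25 nM TGR, 700 uM GSH, 50 nM Prx2 in 100 mM phosphate pH 7.4, 10 mM EDTA, 0.01% Tween-20. 15 min RT with compound; NADPH/GSH added, H2O2 starts reaction; NADPH fluorescence read 8 min.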
Active calls of the source: *; ? = inconclusive; . = no result given; [ ] = dose if it differs, or a comment. Potency is the fitted concentration of half-maximal effect. This is a subset. The share of hits here may be higher or lower than overall.

no.	Compound	LT uptake inh	SmPrx2 inh
1	CC1CCCC(C)N1C(=O)CN1C(=O)C(C)(C)Oc2ccc(C(=O)NC3CCCC3)cc21 (stereo not given)	?	>57
2	CCCn1c(-c2ccc(F)cc2)nc2c(N3CCN(C)CC3)nc(C)nc21	5.8%	.
3	O=C(O)CCCNC1=NCCC1	-21.0%	.
4	c1ccc(-n2ncc3c(N4CCN(c5ccccn5)CC4)nc(N4CCCCC4)nc32)cc1	-2.1%	>57
5	COc1ccccc1-c1nc(N(C)C)c2ccccc2n1	?	.
6	CCCCCC(=O)Nc1ccc(N2CCN(C(=O)CCC)CC2)cc1	-3.9%	>57
7	CCOC(=O)c1[nH]c(COC(=O)c2ccccc2NC(=O)c2ccco2)c(C(=O)OCC)c1C	6.7%	>57
8	Cc1cccc(CNc2ncncc2-c2cccc(NS(C)(=O)=O)c2)c1	-6.7%	>57
9	Cc1noc(C)c1CN1C(=O)NC2(CCc3ccccc3C2)C1=O (stereo not given)	-7.0%	>57
10	Cc1ccc2[nH]c(=O)c(CN(Cc3ccccc3Cl)C(=O)N3CCOCC3)cc2c1	7.0%	>57
11	O=C(NCc1ccc(N2CCCC2=O)cc1)Nc1ccccc1	-11.5%	>57
12	O=C(Nc1cccc(F)c1)N1CC[C@@]2(CCCN(C(=O)c3ccco3)C2)C1	-2.7%	>57
13	CN(C)c1ccc(-c2cc(Nc3ccc(F)cc3)ncn2)cc1	?	>57
14	CC(=O)SCCC(=O)Nc1ccccc1	.	>57
15	COc1ccc(/C=N\NC(=O)O)cc1	4.8%[8 µM]	>57
16	COC(=O)c1ccccc1NC(=O)CNc1cc(Cl)ccc1N1CCOCC1	?	>57
17	CC(C)OCCCNC(=O)CNC(=O)c1cccs1	8.3%	>57
18	COc1ccc(C(=O)Nc2nc3nc(-c4ccccc4)cc(=O)n3[nH]2)cc1	6.1%	>57
19	CCOC(=O)Cn1nnnc1CN(Cc1ccccc1)Cc1cc2cc(CC)ccc2[nH]c1=O	-0.5%	>57
20	Clc1ccc(Cc2nnc(-c3cccs3)o2)cc1	?	>57
21	CCN(c1ccccc1)S(=O)(=O)c1ccc(F)cc1	-5.1%	>57
22	COC(=O)c1nc(-c2ccccc2)oc1N(C)C	6.0%	>57
23	CC(C)(C)SCCNS(=O)(=O)c1ccc(F)cc1	-0.7%	.
24	O=C1CC(C(=O)Nc2ccc(O)c(C(=O)O)c2)C(c2ccccc2)O1 (stereo not given)	-15.0%	>57
25	c1ccc(-n2ncc3c2ncn2nc(CSc4nc5ccccc5s4)nc32)cc1	-5.4%	>57
26	COc1cc(OC)c(C2CC(=O)N3CN(c4ccc(C)cc4)CSC3=C2C#N)cc1OC (stereo not given)	-26.4%	>57
27	Cc1cccnc1NC(=O)c1c(O)c2ccccc2n(C)c1=O	10.5%	.
28	CCN(CC)CCCCn1c(-c2ccccc2)nc2c(NCc3ccccc3)nc(C)nc21	-13.6%	.
29	C=CCNc1ncnc2c1ncn2C1OC(CO)C(O)C1O (stereo not given)	?	>57
30	COc1ccc(C2SCCN2S(=O)(=O)c2ccc(F)cc2)cc1OC (stereo not given)	?	>57
31	CCOC(=O)CSc1nc(NCc2ccco2)c2ccccc2n1	1.7%	>57
32	Cc1ccc(-n2c(C)cc(C3N=C(N)Nc4nc5ccccc5n43)c2C)c(C)c1 (stereo not given)	?	>57
33	Cc1ccc(C2C3=C(CC(C)(C)CC3=O)Nc3[nH]c(=S)[nH]c(=O)c32)cc1 (stereo not given)	14.4%	>57
34	O=c1c(-c2cc(F)cc(F)c2)nc2cnc(Oc3ccccc3)nc2n1C1CC1	-6.4%	>57
35	COCCn1c(C)cc(C(=O)CSc2nc(C)cc(C)c2C#N)c1C	-10.0%	>57
36	CCC(=O)N1CCc2cc(Br)cc(S(=O)(=O)NCCN3CCOCC3)c21	-1.3%	>57
37	COc1ccc(NC(=O)C=C(C)C)cc1Cl	-5.8%	>57
38	CC(C)=CC(=O)Nc1nnc(-c2cccnc2)s1	-3.6%	>57
39	COC(=O)[C@H](N)Cc1ccc(Cl)cc1	2.1%	>57
40	NC(=O)CSc1nnc(-c2ccc(O)cc2)n1Cc1ccco1	-19.8%	>57
41	COc1ccc(OC)c(-n2c(C)nc3cc(C(=O)O)ccc32)c1	3.9%	>57
42	CC/C(=C(/CC)c1ccc(O)cc1)c1ccc(O)cc1	?	.
43	COc1ccc(-c2nnn(CC(=O)N(C3CCCCC3)C(C)C(=O)NC3CCCC3)n2)cc1OC (stereo not given)	17.0%	>57
44	Cc1cc(C)nc(-n2nc(C)c3c(=O)[nH]c(C(F)(F)F)nc32)n1	6.7%	>57
45	CCOC(=O)C(NC(=O)N1CCCCC1)(c1ccccc1)C(F)(F)F (stereo not given)	10.7%	>57
46	CCn1c(CSc2nc3ccccc3n2C)nc2ccccc21	25.3%	>57
47	CC1(c2ccccc2)CC(c2ccccc2)=Nc2nonc2N1 (stereo not given)	?	>57
48	COc1ccc(C(=O)N2CCC3(CC2)CCN(c2ccncc2)CC3)cc1	-16.5%	>57
49	CCOc1ccc(-n2c(SCC(=O)Nc3ccc4c(c3)OCO4)nc3c(c2=O)SCC3)cc1	15.5%	>57
50	O=C(CN1C2CCC1CC(NC(=O)C1CC1)C2)NCc1ccccc1 (stereo not given)	-2.4%	>57

Continuation.
no.	Compound	LT uptake inh	SmPrx2 inh
51	CO[C@H]1COC(=O)[C@H]2CCCN2C(=O)C/C=C\[C@@H](C)[C@H](OC)COC(=O)C/C=C\[C@@H]1C	-13.4%[1.6 µM]	.
52	Cc1ccsc1C1NC(=O)c2c(sc3c2CCN(C)C3)N1 (stereo not given)	?	>57
53	COc1cc(C2C(C(=O)Nc3ccccc3OC)=C(C)Nc3ncnn32)ccc1O (stereo not given)	-7.5%	>57
54	O=P(O)(CCCCP(=O)(O)CCc1ccccc1)CCc1ccccc1	-12.9%	>57
55	CCOC(=O)C1CCCN(C(=O)c2cn(CC)c(=O)c3cc(OC)c(OC)cc23)C1 (stereo not given)	6.2%	>57
56	c1ccc(OCc2nc3ccccc3[nH]2)cc1	-8.2%	>57
57	Clc1ccc(C(c2nnnn2C2CCCC2)N2CCSCC2)cc1 (stereo not given)	?	>57
58	COc1ccc(OC)c(NC(=O)CSc2nnc(CNC(=O)c3ccco3)o2)c1	-3.3%	>57
59	COc1ccc(CNC(=O)CN(C(=O)c2cc3sccc3n2C)C2CCCC2)cc1	-6.2%	>57
60	O=C(CSc1nnc(NC(=O)c2ccco2)s1)NC1CCCCC1	8.3%	>57
61	CCOC(=O)Cc1csc(SCC(=O)c2c(N)n(CC(C)C)c(=O)n(C)c2=O)n1	-0.7%	>57
62	CCCc1cc(C(=O)N2CCN(c3ccccc3C)CC2)cs1	?	>57
63	O=C(CN1C(=O)c2ccccc2S1(=O)=O)N1CCc2ccccc2C1	?	>57
64	Cc1cc(C)c(-c2cc(C(F)(F)F)no2)c(=O)[nH]1	-8.5%	>57
65	COC(=O)c1ccc(-c2nc3ccccc3o2)cc1	-21.1%	>57
66	COc1ccc(F)cc1S(=O)(=O)N1CCC(C(N)=O)CC1	-2.4%	>57
67	CCN=C1SC(CC(=O)NC2CCCCC2)C(=O)N1CC (stereo not given)	-9.0%	>57
68	Cc1ccc(OCC(=O)N2CCN(C3=NS(=O)(=O)c4ccccc43)CC2)cc1	0.0%	>57
69	CCN(CCCNC(=O)C1CCN(S(=O)(=O)c2cnc[nH]2)CC1)c1cccc(C)c1	2.1%	>57
70	C=CCc1cc(OC)ccc1OCCON1C(=O)CCC1=O	0.4%	>57
71	Cc1cc2cc(CN3C(=O)c4ccccc4C3=O)ccc2n1C	-4.2%	>57
72	CCOc1ccccc1-n1c(SCC(=O)NC(C)(C)C)nnc1-c1ccoc1C	-6.8%	>57
73	Cc1ccc(CNC(=O)CCS(=O)(=O)c2cc(Br)cc3c2N(C(=O)C2CC2)CC3)o1	?	>57
74	O=c1oc(-c2cccnc2)nc2ccccc12	-8.8%	.
75	O=C(NC1CCCCC1)n1c(=O)oc2ccccc21	-1.1%	.
76	CCOC(=O)CC(=O)CSc1ccc2nnc(-c3ccccc3)n2n1	?	>57
77	COc1ccc(-c2csc(Cc3nnc4n3CCCCC4)n2)cc1OC	23.8%	>57
78	O=C(NCCCN1CCN(c2ccccc2F)CC1)Nc1ccc(F)cc1	-3.5%	?
79	CC(C)(C)OC(=O)N1CCC[C@H]1c1nnc(SCc2ccccc2Cl)o1	-18.9%	>57
80	COC(=O)[C@@H]1CC[C@H](C)[C@@H](c2ccc(C)cc2)N1C(=O)c1ccc(/C=N\OCC[C@@H]2C=C[C@H](OC(C)=O)[C@H](COC(C)=O)O2)cc1	-9.4%[8 µM]	.
81	O=S(=O)(c1ccc(Br)c2nsnc12)N1CCOCC1	4.5%	>57
82	O=c1[nH]n(-c2ncnc3c2cnn3-c2ccccc2)c(=O)c2ccccc12	-16.3%	>57
83	Cc1ccc(C2C3=C(CC(C)(C)CC3=O)NC3=C2C(=O)CC(C)(C)C3)o1	-8.0%	>57
84	Cc1nn(Cc2ccccc2)c(Cl)c1C(=O)OCc1nnc(-c2ccccc2)o1	-27.7%	>57
85	Cc1nc(SCC(=O)NCc2ccco2)c2oc3ccccc3c2n1	-10.4%	>57
86	COc1ccc(NC(=O)C2C3C=CC4(CN(Cc5cccnc5)C(=O)C24)O3)c(OC)c1 (stereo not given)	-6.4%	>57
87	Nc1nc(N)[n+]([O-])c(N)c1NCO	-6.1%[8 µM]	>11.4
88	Cc1c(N=Cc2ccc(Cl)o2)c(=O)n(-c2ccccc2)n1C	10.0%	>57
89	Cc1ccc(S(=O)(=O)c2cc3c(=O)n4ccccc4nc3n(CC3CCCO3)c2=N)cc1 (stereo not given)	9.4%	>57
90	N#CCSc1nnc2c(Cl)cc(Cl)cn12	5.4%	>57
91	Cc1cc(C(=O)CN2C(=O)c3ccccc3S2(=O)=O)c(C)n1CC1CCCO1 (stereo not given)	-0.2%	>57
92	CCCC(=O)Nc1cccc(NC(=O)c2ccc3c(c2)OCCO3)c1	20.7%	>57
93	CCC(C)[C@H](NC(=O)NCCCN1CCOCC1)C(=O)OC (stereo not given in full)	-3.1%	>57
94	CCCn1c(C)nc2c(N(C)CCN(C)C)nc(C)nc21	?	.
95	Cc1cc(C)c2cc(CN(CCO)Cc3nnnn3Cc3ccccc3)c(=O)[nH]c2c1	-10.2%	>57
96	Cc1nn(C)c(C)c1P(=S)(c1c(C)nn(C)c1C)N(C)C	-19.3%	>57
97	O=C(CSc1nc(-c2ccco2)cc(C(F)(F)F)n1)NCc1cccs1	-2.9%	>57
98	CCC(C)(C)n1nnnc1CN1CCN(c2nc3cc(OC)ccc3cc2C#N)CC1	-5.8%	>57
99	COCCN(C(=O)CCC(=O)Nc1ccccn1)C(C(=O)NCCC(C)C)c1ccc(OC)cc1 (stereo not given)	4.2%	>57
100	COc1cccc(-c2nc(N3CCN(C)CC3)c3ccccc3n2)c1	?	>57

The closing 3 entries of the part before open the next one:
no.	Compound	LT uptake inh	SmPrx2 inh
98	CCC(C)(C)n1nnnc1CN1CCN(c2nc3cc(OC)ccc3cc2C#N)CC1	-5.8%	>57
99	COCCN(C(=O)CCC(=O)Nc1ccccn1)C(C(=O)NCCC(C)C)c1ccc(OC)cc1 (stereo not given)	4.2%	>57
100	COc1cccc(-c2nc(N3CCN(C)CC3)c3ccccc3n2)c1	?	>57
101	COc1ccc2ccccc2c1C1CC(=O)N2CN(Cc3ccco3)CSC2=C1C#N (stereo not given)	?	>57
102	COc1ccc(C2C(=O)N(C3CCCCCC3)CC(=O)N2Cc2ccccc2)cc1OC (stereo not given)	8.5%	>57
103	CC1=Nn2c(nnc2-c2ccccn2)SC1	18.8%	>57
104	C=CCn1c(=O)c2c(nc3n2CCS3)n(C)c1=O	-9.2%	>57
105	O=[N+]([O-])c1ccc2c(c1)c(S(=O)(=O)O)cc1nonc12	?	>11.4
106	C=CCn1c(SCc2ccc(C#N)cc2)nnc1-c1cccc(Cl)c1	-14.8%	>57
107	COc1ccc(NC(=O)N2CC[C@@]3(CCCN(C(=O)c4cnccn4)C3)C2)cc1	-1.2%	>57
108	CCC(C)c1ccc(OCC(=O)O)cc1 (stereo not given)	-11.1%	>57
109	O=C(O)Cc1cccnc1C(=O)O	-6.1%	>57
110	CN1CC[C@@]23c4ccccc4N[C@H]1[C@]21CCN(C)[C@@H]3Nc2ccccc21	?	>57
111	CS(=O)(=O)N(CC(=O)NC1CCCC1)c1ccc2c(c1)OCCO2	-4.4%	>57
112	CC1CCCN(Cc2nc3c(c(=O)n(C)c(=O)n3C)n2CC(=O)c2ccccc2)C1 (stereo not given)	?	>57
113	CCOC(=O)N1CCC(NS(=O)(=O)c2cc(Br)cc3c2N(C(=O)CC)CC3)CC1	?	>57
114	CCOC(=O)CN1C(=O)C(C)(C)Oc2ccc(C(=O)NC(C)(C)CC)cc21	1.4%	>57
115	O=C(Nc1ccc(F)cc1)N1CCN(c2nc3ccccc3s2)CC1	?	>57
116	COc1ccc(OCc2ccc(-c3nc4ccccc4c(=O)n3N)o2)cc1	-27.8%	>57
117	COc1ccc(-c2cc(C(F)(F)F)nc(SCCC(=O)N3CCOCC3)n2)cc1	-6.3%	>57
118	CC(C)OC(=O)CSc1nnc(-c2cnccn2)n1-c1ccc(Cl)cc1	-9.5%	>57

Bioassay records from PubChem.
